High-throughput results from PubChem.
TRPML1 inh: inhibitors of human TRPML1 channel. Q9GZU1. TRPML1-inducible cells, Ca2+ dye fluorescence, FDSS; hits give low values; inhibition of EC80 agonist-evoked calcium signal. activity change, negative = inhibition, % (no concentration beside the values). 0.02% of 390,000 active. AID 624415; in the data active means activity change below about -50%; inconclusive means about -30% to -50%; inactive means above about -30%;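 note: stimulus is agonist 54-4 at its EC80 concentration; % is set by controls: 0 for no effect and ±100 for the full control effect; compound concentration not given in the record; the text of the record puts the active cut at -80%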
Target sequence (Q9GZU1 whole entry, looked up): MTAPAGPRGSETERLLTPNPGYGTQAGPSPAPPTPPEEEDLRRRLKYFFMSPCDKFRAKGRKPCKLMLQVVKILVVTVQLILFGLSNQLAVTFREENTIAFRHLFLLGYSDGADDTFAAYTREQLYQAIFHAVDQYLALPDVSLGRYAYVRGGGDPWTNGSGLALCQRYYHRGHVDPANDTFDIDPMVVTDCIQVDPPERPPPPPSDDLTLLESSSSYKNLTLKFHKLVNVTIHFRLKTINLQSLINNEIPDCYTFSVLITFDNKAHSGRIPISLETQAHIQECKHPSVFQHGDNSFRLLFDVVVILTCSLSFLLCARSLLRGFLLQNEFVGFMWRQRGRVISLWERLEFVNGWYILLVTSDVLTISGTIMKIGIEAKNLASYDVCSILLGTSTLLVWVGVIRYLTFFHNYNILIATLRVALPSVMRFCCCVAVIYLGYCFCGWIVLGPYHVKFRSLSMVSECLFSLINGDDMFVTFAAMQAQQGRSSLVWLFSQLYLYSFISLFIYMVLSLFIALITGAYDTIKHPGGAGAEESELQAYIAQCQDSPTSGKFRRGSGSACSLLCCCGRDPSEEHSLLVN
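TRPML1-DL cells, Tet-induced overnight (~16 h, 37 °C) at 1,500 cells/well, were loaded with Ca8 no-wash dye plus quencher for 45-90 min at room temperature. Compounds were pinned during FDSS kinetic reading; agonist 54-4 at EC80 (4 uM final) then added.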
Six1-Eya2 blk: inhibitors of human Six1/Eya2 interaction; Q15475+O00167; AlphaScreen GST-Six1/His-Eya2 binding, biochemical; hits give low values; control for the full effect not named in the record; activity change, % (test concentration not listed); 0.56% of 360,000 active; AID 651725; in the data active = activity change below about -65%; inconclusive = about -30% to -65%; inactive = above about -30%; note: % is set by controls: 0 for no effect and ±100 for the full control effect; compound concentration not given in the record
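Six1/Eya2 binding was read as AlphaScreen signal after compounds were pinned into GST-Six1 plus His-tagged Eya2 (5X stock 250/500 nM) in pH 8.0 Tris/NaCl/TCEP buffer, beads added, then incubated 1 h, 37 C, dark.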
TRPML1 ag: agonists of human TRPML1 channel; Q9GZU1; TRPML1-expressing cells, Ca2+ dye fluorescence, FDSS; host cell line not named in the record; reference of the full effect not given here; activation, % (test concentration not listed); 0.12% of 410,000 active; in the data active = activation above about 50%; inconclusive = about 30% to 50%; inactive = below about 30%; note: 0% is about no effect; the text of the record puts the active cut at 80%
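Calcium fluorescence on an FDSS kinetic reader gave the read-out. Tet-induced TRPML1-DL cells were plated overnight, dye-loaded (Ca8 with quencher, 45-90 min, room temperature, dark), then read 110 s after compound addition, and again 110 s after 4uM final 54-4 (EC80).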
D2 ag: human D2 receptor agonism in beta-arrestin assay; DiscoveRx PathHunter D2 beta-arrestin, luminescence, 90 min; 100% = 57 uM dopamine signal; 0.084% of 360,000 active; activation, % (test concentration not listed); in the data active = activation above about 40%; inconclusive = about 15% to 40%; inactive = below about 15%; note: compound concentration not given in the record; the text of the record calls up to 30% inactive
Target sequence (P14416 whole entry, looked up): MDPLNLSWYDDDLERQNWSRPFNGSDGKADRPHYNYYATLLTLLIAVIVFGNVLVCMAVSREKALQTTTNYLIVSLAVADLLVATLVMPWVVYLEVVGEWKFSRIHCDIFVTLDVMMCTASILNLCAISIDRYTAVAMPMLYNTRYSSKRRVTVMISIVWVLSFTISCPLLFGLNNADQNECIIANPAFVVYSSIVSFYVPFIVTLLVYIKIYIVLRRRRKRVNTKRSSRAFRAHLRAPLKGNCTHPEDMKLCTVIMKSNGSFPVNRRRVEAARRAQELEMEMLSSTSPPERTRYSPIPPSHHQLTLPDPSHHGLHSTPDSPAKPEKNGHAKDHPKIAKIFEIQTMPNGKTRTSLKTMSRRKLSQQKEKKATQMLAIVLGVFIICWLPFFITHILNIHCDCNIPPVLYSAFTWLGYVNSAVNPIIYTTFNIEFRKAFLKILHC
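DiscoveRx PathHunter D2 beta-arrestin cells (2,100/well) attached overnight, then compound-stimulated 90 min at 37 C in HBSS/10 mM HEPES/0.1% Tween-20 buffer; beta-galactosidase complementation read by luminescence after 1 h at ambient temperature. Dopamine 57 uM final (EC100) as control.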
CtBP-E1A inh: blocks the CtBP interaction with E1A. AlphaScreen GST-E1A/His-CtBP binding, 1536-well; hits give low values; control for the full effect not named in the record. 0.49% of 340,000 active. activity change, % (test concentration not listed); in the data active means activity change below about -65%; inconclusive means about -30% to -65%; inactive means above about -30%; note: % is set by controls: 0 for no effect and ±100 for the full control effect; compound concentration not given in the record
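GST-E1A and His-tagged CtBP (125 nM each as 5X stock) were preincubated with pin-transferred compound for 2 h at 37 °C in the dark, then glutathione donor and nickel acceptor beads were added for 1 h before AlphaScreen reading.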
PINK1 modulator: changes PINK1 expression; PINK1 immunofluorescence, high-content cytometry, 24 h; Potency, µM (series often up to 76.6 µM), for inactives: at the top dose activation (PINK1 increase), most hits filed as activators; 0.2% of 410,000 active; active = well fitted activation curve with a large enough effect; inconclusive = small, poorly fitted or top-dose-only effect; inactive = flat fitted curve, though single readings scatter; cell line not stated here;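 note: potency is the fitted concentration of half-maximal effect; % of control where 0% means no effect; nearly all actives have a fitted effect of over 65% in size; a mitochondrial uncoupler was the plate control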
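Stable cell line, 250 cells/well, 12 h attachment; compounds pinned at 5 concentrations, 24 h; CCCP control. Fixed with nuclear dye, primary antibodies 12 h at 10 degrees C, secondary plus cell stain; laser-scanning cytometer read.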
The depositor's hits bear a star; ? = inconclusive; nt = not tested or not shown; [ ] = remark or other dose.

SMILES	TRPML1 inh	Six1-Eya2 blk	TRPML1 ag	D2 ag	CtBP-E1A inh	PINK1 modulator
C=CCNC(=O)/C(C#N)=C/c1c(C)nn(-c2ccc(Cl)cc2)c1Cl	24	0	1.1	0.2	nt	6.4%
COc1cccc(CN(C)CC(=O)NCc2ccccc2Cl)c1	-16	6	1.2	-0.1	8	0.8%
CCOc1cc(-c2nnc(SCC(=O)NC3CCCC3)nc2-c2ccc(OC)c(OCC)c2)ccc1OC	-19	nt	1.2	nt	nt	-0.4%
Cc1ccsc1C(=O)NN=C1CCCCCC1	14	-2	0.6	-0.7	-17	-0.3%
CC(C)NC(=O)COC(=O)c1ccccc1CSC1=NCCS1	3	11	0.1	-4.3	1	-0.1%
O=C(CN1C(=O)C2C3C=CC(C3)C2C1=O)OCC(=O)c1ccc(Cl)c([N+](=O)[O-])c1 (stereo not given)	-4	2	-0.5	-20	3	0.3%
Cc1cccc(NC(=O)c2cccc(OC(=S)N3CCOCC3)c2)c1	2	-1	-0.5	2.2	3	0.0%
CC(C)(C)CN1CCNC(=O)C1CC(=O)N1CCN(c2ccccc2)CC1 (stereo not given)	7	1	0.8	-2.4	0	-0.3%
CCOc1ccc(NCc2cccn2-c2nnc(N3CCC(C(=O)NCC(C)c4ccccc4)CC3)s2)cc1 (stereo not given)	0	nt	1.3	nt	nt	-0.6%
CCCNC1=C(C)C(=O)CC1	10	15	0.4	-2.7	-2	1.2%
Cc1ccc(Nc2nc(N3CCOCC3)nc(N3CCOCC3)n2)cc1	-11	7	4.5	1.2	6	-2.0%[38.3 µM]
CCOc1ccc(S(=O)(=O)NCCc2csc(-c3ccc(Cl)cc3)n2)cc1	22	nt	2.8	nt	nt	27%
O=C(c1cc(S(=O)(=O)N2CCCCC2)ccc1Cl)N1CCOCC1	15	2	-0.4	0.9	2	0.7%
O=C(CSc1ccc(-c2ccccc2)nn1)NC1CCCCC1	1	-4	1.3	-3.1	-10	0.9%
COc1cc2c(cc1OC)-c1cc(Nc3ccc(C(=O)O)cc3)nc(=O)n1CC2	28	?	-0.2	-2.8	-14	2.8%
CCNS(=O)(=O)c1ccc(NC(=O)c2cccnc2)cc1	-10	-1	0.5	2.0	-11	-3.4%[38.3 µM]
CCC(C)(C(=O)NC1CCCCC1)N(CC1CCCO1)C(=O)Cc1cccs1 (stereo not given)	-1	3	-0.1	-2.4	-2	-1.1%
Cc1ccccc1NC(=O)COC(=O)C1C2CC3OC(=O)C1C3C2 (stereo not given)	9	7	0.6	-5.8	6	0.3%
CCc1noc(C)c1C(=O)Nc1cc(S(=O)(=O)N2CCOCC2)ccc1N1CCN(CC)CC1	-14	5	-0.3	-2.0	-1	-4.6%
COCCNC(=O)COc1ccc(C)cc1C	-2	11	-0.3	0.8	-5	7.8%
COc1ccc(N2CCN(C(CNS(C)(=O)=O)c3ccco3)CC2)cc1 (stereo not given)	-20	2	0.8	-0.8	-17	0.2%
Cc1cc(C)c(C)c(S(=O)(=O)NC(C(=O)NCCc2ccco2)C(C)C)c1C (stereo not given)	8	-8	-0.4	-3.7	nt	2.1%
CC(C)(C)[C@H]1C=C(C(=O)N2CCN(Cc3ccccc3)CC2)O[C@@H](OCCCCO)C1	1	0	-0.3	0.0	2	-0.2%
CC1(C(=O)Nc2cnc3ccccc3c2)CCN1CCOc1ccccc1 (stereo not given)	nt	2	-0.6	6.1	2	1.8%
Cc1ccc(C)c(Cn2nnc3c(=O)[nH]c(C4CCN(S(=O)(=O)c5ccc(S(=O)(=O)NC6CC6)cc5)CC4)nc32)c1	-3	-22	0.3	-2.6	-2	1.2%

Next part
SMILES	TRPML1 inh	Six1-Eya2 blk	TRPML1 ag	D2 ag	CtBP-E1A inh	PINK1 modulator
O=C(CNC(=O)N1CC(=O)Nc2ccccc21)NCc1ccc(F)cc1	-10	12	0.5	3.1	7	-1.0%
Cc1ccc2c(=O)cc(C(=O)NC3CCS(=O)(=O)C3)oc2c1C (stereo not given)	-11	-1	-0.6	-1.9	1	-0.3%
COC(=O)c1ccc(Oc2c(F)c(F)nc(N3CCOCC3)c2F)cc1	-3	1	1.5	1.2	35	5.8%
COc1ccc(CNc2nc(NCc3ccc(OC)c(OC)c3)n(C(=O)c3cccs3)n2)cc1OC	16	-24	4.3	4.4	15	2.8%[38.3 µM]
O=C(CCc1ccc(CCC(=O)c2cccs2)s1)c1cccs1	8	36	2.7	-1.2	37	-0.9%
COC(=O)c1[nH]c2cc(OC)ccc2c1NC(=O)CCN1CCN(Cc2ccc3c(c2)OCO3)CC1	16	-9	-0.3	-4.3	-2	-3.6%
CCN(CC)C(=O)C(=O)N/N=C/c1ccc(Cl)cc1Cl	4	-6	0.7	-2.9	-2	1.8%
O=[N+]([O-])c1cc(C=NN2CCCCCC2)ccc1Cl	8	-16	1.7	-2.0	-23	0.1%
CCN(C(=O)CCN1C(=O)c2ccccc2C1=O)C1CCCCC1	14	7	0.0	2.0	1	-3.2%[38.3 µM]
O=C(COC(=O)C1CC1)NCc1ccc(Cl)cc1Cl	-1	16	-0.4	-3.2	nt	-1.7%
Cc1cc[n+](-c2[nH]c(=O)sc2/C=N/N=C(\[O-])CCn2c3ccccc3c3ccccc32)cc1	-11	-16	-0.2	-3.5	-4	0.7%
COc1ccc(NC(=O)C2CC(=O)N(Cc3ccco3)C2)cc1Cl (stereo not given)	-1	-11	-0.7	-3.6	nt	0.6%
Cc1ccc2nc(/N=C(\N)NC(=O)N3c4ccccc4Sc4ccccc43)nc(C)c2c1	5	-10	0.4	?	-7	10%
Cn1c(/C(C#N)=C/Nc2ccccn2)nc2ccccc21	7	-3	1.0	-4.1	16	4.9%
C=CCNC(=O)C1=NOC(CNC(=O)c2c(-c3ccccc3Cl)noc2C)C1 (stereo not given)	-3	0	0.6	1.0	2	-0.3%
CC1(OC(=O)C2CCCC2)C(=O)C=C2C=C(c3ccsc3)N(C3CCCC3)C=C2C1=O (stereo not given)	-3	-15	0.4	9.1	-11	2.1%
O=c1[nH]c(/C=C/c2ccccc2[N+](=O)[O-])nc2ccccc12	12	8	-0.3	-5.8	-5	0.5%
COc1ccc(Nc2nc(N)nc(N)c2S(=O)(=O)c2ccccc2)cc1	5	nt	3.0	nt	nt	-0.2%
CCc1ccccc1NC(=O)CSc1nc2ccccc2n1CC(=O)N1CCCC1	2	-3	0.1	-3.5	1	-0.1%
CC1CN(CCCOc2ccccc2-c2ccccc2)CC(C)O1 (stereo not given)	-18	-7	0.7	-4.6	0	8.5%
Cc1ccc(/C=N/NC(=O)c2cccnc2)s1	5	0	-0.3	2.3	-2	-0.8%
COCCNc1nc(-c2ccccc2F)c2sc(-c3ccccc3)cc2n1	nt	36	0.4	-7.1	44	2.9%
CCOc1ccc(C2C(=O)N(C3CCCCCC3)CC(=O)N2CCc2ccc(OC)c(OC)c2)cc1OC (stereo not given)	-14	nt	-0.4	nt	nt	4.0%
CCC(=O)Nc1cccc(-c2ccc(N3CCN(C)CC3)nn2)c1	-1	2	0.5	2.8	nt	0.6%
Cc1ccc(C)c(OCCn2c(=O)c3c(ncn3C3CCCC3)n(Cc3ccccc3)c2=O)c1	-4	-5	1.9	0.4	0	3.8%

Compounds shown so far containing an aryl thioether with sulfur outside any ring, in the order listed:
SMILES	TRPML1 inh	Six1-Eya2 blk	TRPML1 ag	D2 ag	CtBP-E1A inh	PINK1 modulator
CCOc1cc(-c2nnc(SCC(=O)NC3CCCC3)nc2-c2ccc(OC)c(OCC)c2)ccc1OC	-19	nt	1.2	nt	nt	-0.4%
O=C(CSc1ccc(-c2ccccc2)nn1)NC1CCCCC1	1	-4	1.3	-3.1	-10	0.9%
CCc1ccccc1NC(=O)CSc1nc2ccccc2n1CC(=O)N1CCCC1	2	-3	0.1	-3.5	1	-0.1%

Going on with the list:
SMILES	TRPML1 inh	Six1-Eya2 blk	TRPML1 ag	D2 ag	CtBP-E1A inh	PINK1 modulator
Cc1ccc(-c2nc(CNC(=O)NC3CCCCC3)c(C)o2)cc1	-13	nt	0.2	nt	nt	0.5%
N#Cc1cc([N+](=O)[O-])cnc1N(CCO)CCO	2	-3	1.4	0.8	7	0.0%
CC1=CC(C)(C)Nc2ccc(OC(=O)C(C)N3C(=O)c4ccccc4C3=O)cc21 (stereo not given)	21	?	2.6	6.8	?	0.0%
COc1ccc(CCC(=O)N2CCCc3ccccc32)cc1	-8	3	-0.4	-1.1	-11	-1.1%
CNC(=O)c1c(NC(=O)c2ccco2)sc2c1CCCC2	3	-12	2.1	0.4	-27	0.6%
Cc1ccc(-n2c(SCC(N)=O)nnc2-c2ccco2)cc1	13	2	-0.2	-5.6	5	-0.5%
Cc1c(CN(C)C)c2c(n1Cc1ccccc1)C(=O)c1ccccc1-2	-13	?	0.5	-0.1	?	0.3%
COc1cccc(C(=O)NOCc2ccccc2)c1OC	3	3	-0.3	7.7	3	-0.8%
COC(=O)/C=C/c1sc2nc(C)cc(C)c2c1N=CN(C)C	1	1	-0.9	-3.4	1	2.6%
CCCc1nc(NCc2ccncc2)c2nnn(Cc3ccccc3F)c2n1	-7	-2	-1.0	-7.6	0	-1.2%
Cc1c(C(=O)NCCSCc2cccc(C(F)(F)F)c2)cnn1-c1ccc(Cl)cc1	-4	7	2.5	4.6	11	0.5%
CC(C)(C)NC(=O)CN(Cc1ccccc1)S(=O)(=O)c1ccccc1	?	32	0.2	1.5	-22	-0.2%
CCc1nc2ccc(C(=O)NCc3ccc(OC)cc3)cn2c1N(CC)CCN(C)C	nt	7	-0.5	-3.8	-15	1.0%
S=C(NCCCN1CCOCC1)NCCCN1CCOCC1	20	8	0.3	0.1	4	1.0%
CCSc1sccc1C1C(C#N)=C(N)N(c2cccnc2)C2=C1C(=O)CCC2 (stereo not given)	7	-5	0.7	-0.5	-16	3.6%
CCc1nnc(NC(=O)C2CC(=O)N(C3CCCC3)C2)s1 (stereo not given)	6	-4	-0.4	-7.9	1	-2.4%
Cc1onc(-c2ccccc2Cl)c1C(=O)OCC(=O)Nc1ccc2c(c1)OCO2	5	-14	1.0	0.5	-21	-3.1%
Cc1ccc(S(=O)(=O)N2CCC(C(=O)N[C@H](C(=O)N3CCN(C)CC3)C(C)C)CC2)cc1	-8	1	1.0	-2.1	1	22%[38.3 µM]
CC(C)CC(=O)NC1(C(F)(F)F)C(=O)Nc2c1c(=O)n(C)c(=O)n2C (stereo not given)	-1	3	-0.2	-3.3	12	-1.0%
CC(/C=C/c1ccc(N(C)C)cc1)=N\N=C(/N)SC1CC(=O)N(c2ccc(C(=O)O)cc2)C1=O (stereo not given)	-10	-10	0.8	-2.4	-6	?
c1ccc(NCCC2OCC3(CO2)COC(CCNc2ccccc2)OC3)cc1 (stereo not given)	-14	-21	0.6	-3.9	-28	2.6%
COc1cc(Cl)c(C)cc1NC(=O)Cn1c(NCCO)nc2ccccc21	-2	7	0.0	-0.5	-5	12%
CCCNC(=O)C(Cc1ccccc1)NC(=O)c1ccccn1 (stereo not given)	7	-2	-0.7	-2.9	6	-0.2%
